Screening results from PubChem BioAssay.
Rce1 inhib – inhibitors of yeast Ras-converting enzyme; Q03530; yeast membranes, quenched prenylated peptide cleavage fluorescence; calls only; 290,000 tested, 0.27% active; AID 2563;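 active = fall in fluorescence gain of 50% or more versus controls, with final raw signal at or below 3038400; inconclusive = same 50% fall but final raw signal above 3038400; inactive = fall in fluorescence gain under 50%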;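 also: plate controls were neutral control wells for no effect and wells lacking membranes for full effect; tested at 10 µM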
Target sequence (Q03530 whole entry, looked up): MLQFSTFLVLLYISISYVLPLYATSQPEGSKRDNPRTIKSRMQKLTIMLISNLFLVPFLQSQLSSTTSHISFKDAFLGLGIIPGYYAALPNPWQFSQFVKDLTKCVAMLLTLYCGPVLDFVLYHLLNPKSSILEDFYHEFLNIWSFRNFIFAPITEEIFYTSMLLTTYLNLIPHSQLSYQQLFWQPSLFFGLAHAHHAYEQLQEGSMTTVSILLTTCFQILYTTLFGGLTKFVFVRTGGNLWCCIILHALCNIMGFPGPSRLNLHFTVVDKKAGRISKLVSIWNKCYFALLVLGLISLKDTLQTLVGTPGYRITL
PABP FP inh – PABP-poly(A) binding inhibition | P11940 | PABP-poly(A) RNA binding, fluorescence polarization | inhibition, % at 35 µM | 290,000 tested, 1% active | AID 2014;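 active = 50% or more with normal probe brightness, or confirmed in later tests; inconclusive = above 50% with abnormal brightness, or retests that disagree; inactive = below 50% or failed in later tests; about a fifth of its hits are not listed in these tables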;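 also: calls also rest on retests at 20 µM and on dose response follow-up; controls were probe without protein and protein plus probe with vehicle; some compounds called inactive have numbers as strong as hits; many hits fall short of the cut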
Target sequence (P11940 whole entry, looked up): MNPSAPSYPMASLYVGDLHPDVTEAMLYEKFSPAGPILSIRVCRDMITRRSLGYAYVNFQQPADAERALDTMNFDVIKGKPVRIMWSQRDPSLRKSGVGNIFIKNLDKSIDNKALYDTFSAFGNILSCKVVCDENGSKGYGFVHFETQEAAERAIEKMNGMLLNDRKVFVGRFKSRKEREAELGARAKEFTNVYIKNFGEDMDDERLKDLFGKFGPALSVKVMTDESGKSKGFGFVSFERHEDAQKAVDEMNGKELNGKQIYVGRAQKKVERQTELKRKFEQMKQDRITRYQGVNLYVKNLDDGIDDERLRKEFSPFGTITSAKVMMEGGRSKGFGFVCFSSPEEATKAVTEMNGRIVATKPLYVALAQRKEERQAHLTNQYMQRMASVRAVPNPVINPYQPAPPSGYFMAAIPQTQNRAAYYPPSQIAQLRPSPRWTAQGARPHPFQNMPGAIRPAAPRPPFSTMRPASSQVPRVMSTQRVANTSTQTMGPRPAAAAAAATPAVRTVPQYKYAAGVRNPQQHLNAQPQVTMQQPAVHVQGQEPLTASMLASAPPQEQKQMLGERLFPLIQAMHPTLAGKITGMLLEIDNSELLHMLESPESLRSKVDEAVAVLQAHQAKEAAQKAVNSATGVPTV
Yeast UUG start – modulators of start codon recognition fidelity in yeast; S. cerevisiae UUG-firefly luciferase reporter, luminescence/redox ratio; activity score, % at 18.7 µM; 350,000 tested, 0.13% active; AID 602363;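 active = replicate mean at a twofold rise or more, about +100% in these data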;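 also: firefly luciferase made from a UUG start codon reports start codon fidelity; reporter light over untreated wells divided by growth signal over untreated wells; some hits fall short of that in this replicate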
Env fusion inh – blocks HIV Env-driven cell-cell fusion; HeLa-JRFL Env/CEM21 cell fusion, luciferase; inhibition, % at 12.3 µM; 360,000 tested, 1.1% active; AID 651610;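 active = mean replicate inhibition score of at least 50 and every replicate individually at or above 50; inconclusive = only one of the two criteria met; inactive = mean below 50 and not all replicates reaching 50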;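 also: 0% = plate neutral controls and 100% = maraviroc near 300 nM; one replicate is shown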
CSC inhib – cancer stem cell inhibition; cancer stem cell-like cells viability, luminescence; inhibition, % at 7.5 µM; 300,000 tested, 1.1% active;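 active = mean at 75% or more and at least half the replicates too; inconclusive = mean and replicates disagree; tested in HMLE shEcad cells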;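 also: 0% = median of negative and 100% = median of positive control wells; the first replicate is given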
eIF4H inh – inhibitors of RNA binding by human eIF4H. Q15056. eIF4H fluorescence polarization binding assay. inhibition, % at 35 µM. 290,000 tested, 0.94% active. AID 2012;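 active = 50% or more with normal probe brightness, or confirmed in later tests; inconclusive = above 50% with abnormal brightness, or retests that disagree; inactive = below 50% or failed in later tests; about a fifth of its hits are not listed in these tables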;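 also: calls also rest on retests at 20 µM and on dose response follow-up; 0% = protein and probe with vehicle and 100% = probe without protein; strong numbers were not always called active; many hits fall short of the cut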
MT1-MMP act inh – inhibitors of human MT1-MMP activation; GFP/RFP ratio change, % at 20 µM; 360,000 tested, 0.061% active; HT1080 RFP-PRO-GFP cells, GFP/RFP ratio fluorescence, overnight; percent of plate control window, DMSO zero; P50281;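 active = GFP/RFP ratio change of at least 30% with cell ATP level not reduced by more than half and red fluorescence within 50% of control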; also: strong numbers were not always called active
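Material – HT1080 RFP-PRO-GFP cells · Control set – DMSO wells and RFP-L50D-GFP cells · Incubation – overnight cell settling, then overnight compound exposure, 37 °C, 5% CO2 · Compound dosing – single-point 20 µM compound, 1% DMSO · Read-out – GFP/RFP fluorescence ratio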
MT1-MMP act inh RFP – also measured in MT1-MMP act inh; calls as there; RFP signal change, %; measured here: RFP expression control read;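 0 = vehicle wells; hits needed this value within 50% of zero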
Numbers without * were called inactive; i = inactive; u = inconclusive; x = no result given. No enrichment for hits; any-hit rate near 2.9%.

Fields – Rce1 inhib	PABP FP inh	Yeast UUG start	Env fusion inh	CSC inhib	eIF4H inh	MT1-MMP act inh	MT1-MMP act inh RFP
1. Cc1sc2ncnc(NCC(c3ccco3)N3CCCC3)c2c1C (stereo unspecified)
    i	-2	-23	x	x	-12	3	3
2. COC(=O)c1ccc(NC(=O)CN2CCN(c3ccccc3)CC2)cc1
    i	3	22	-32	3	5	0	1
3. CC(=O)Nc1ccc(S(=O)(=O)NNC(=O)CCc2ccccc2)cc1
    i	7	-5	-3	-13	-7	3	7
4. Cc1ccc(C(=O)NCCCc2ccccc2)c(C)c1
    i	-9	x	-22	-16	-9	3	3
5. Cc1oc(-c2cccc(Cl)c2)nc1CN1CCC(C(=O)NCC2CCCO2)CC1 (stereo unspecified)
    i	3	-20	-6	-10	-8	5	5
6. CC1(C(=O)NS(=O)(=O)c2ccc(F)cc2F)CCN1C(=O)CC1CC1 (stereo unspecified)
    x	x	-2	3	x	x	1	6
7. CC1(C)Cc2c(sc3ncnc(N)c23)CO1
    i	10	-13	-7	1	10	4	3
8. O=C(CSc1n[nH]c(C2CCCC2)n1)NC1CCCC1
    i	5	-29	1	1	-4	0	-2
9. CN1CCN(C(=O)/C(=C/c2cccs2)NC(=O)c2ccco2)CC1
    i	-9	x	-2	-7	-3	0	8
10. CSCC[C@H](NC(=O)C1CCN(S(=O)(=O)c2ccc(C)cc2C)CC1)c1nc2ccccc2[nH]1
    x	x	-24	x	-7	x	1	-7
11. CN(C)S(=O)(=O)c1cccc(-c2nn(-c3ccccc3)cc2/C=C(\C#N)c2nc3ccccc3[nH]2)c1
    i	5	-6	-6	-10	-7	-11	-2
12. COc1ccc(C(c2oc(CO)cc(=O)c2O)c2oc(CO)cc(=O)c2O)cc1OC
    i	-3	-2	4	-12	-8	-2	3
13. N#C/C=C(/c1ccc(F)cc1)N1CCOCC1
    i	7	x	3	-6	-6	1	1
14. c1ccc2c(N3CCCCCC3)nc(-c3ccncc3)nc2c1
    i	-1	-11	x	39	-8	-5	-10
15. CC(=O)OC[C@H]1O[C@@H](Sc2cccc3cccnc23)[C@H](OC(C)=O)[C@@H](OC(C)=O)[C@@H]1OC(C)=O
    i	-2	x	x	-16	-6	9	10
16. Cc1ccc(NC(=O)CCS(=O)(=O)c2ccc3c(c2)NC(=O)C(C)S3)nc1 (stereo unspecified)
    i	-4	-25	-10	-10	-2	-3	-1
17. CCOC(=O)c1nnc(-c2ccc(C)cc2)nc1Sc1cccc(Cl)c1
    i	5	x	x	9	-3	-2	3
18. O=C(COc1ccc(S(=O)(=O)N2CCOCC2)cc1)NCc1ccccc1
    i	-8	-10	x	-5	-10	-2	1
19. COc1ccccc1CCNC(=O)c1ccc(C)o1
    i	1	x	x	x	2	0	3
20. COc1ccc(C(C)=O)cc1CC1(C)C(=O)Nc2ccc(-c3cccc(C(F)(F)F)c3)cc21 (stereo unspecified)
    x	x	-1	79*	x	x	-2	-10
21. COc1cccc(NC(=O)Nc2ccc3nsnc3c2)c1
    i	2	-13	x	x	-7	4	-7
22. O=C(CC1Oc2ccccc2NC1=O)NCc1ccccc1 (stereo unspecified)
    i	0	-6	-2	-2	-4	-1	1
23. CN(Cc1ccccc1)S(=O)(=O)c1ccc(Cl)c(C(=O)N2CCOCC2)c1
    x	x	-15	i	x	x	-6	-1
24. O=C(NCCC1=CCCCC1)C(=O)NCC(c1ccco1)N1CCN(c2ccccc2F)CC1 (stereo unspecified)
    i	-5	-2	x	19	-4	-2	-4
25. COC(=O)c1ccc(NS(=O)(=O)NC(=O)c2cn(C)c3ccccc23)cc1
    i	6	-15	4	-12	-13	5	10
26. COc1ccc(-c2csc(NC(=S)NC(=O)c3cccs3)n2)cc1Br
    i	6	-17	-50	41	-13	1	-5
27. Cc1cc([N+](=O)[O-])nn1CCCC(=O)Nc1cc(Oc2ccc(F)cc2)cc([N+](=O)[O-])c1
    i	-3	x	x	3	-2	1	-11
28. CCOC(=O)C(=O)/C(=C\N(C)C)c1onc(-c2c(F)cccc2Cl)c1C(=O)OC
    i	-11	-10	x	5	-5	5	4
29. CN(/C(=N\S(=O)(=O)c1ccccc1)c1ccccc1)c1ccc(O)cc1
    i	-9	x	-20	-3	5	-2	5
30. CN(CC(=O)Nc1ccccn1)S(=O)(=O)c1ccc(Cl)cc1
    i	2	-13	x	-4	6	-4	-8
31. CCCS(=O)(=O)N1CCN(CC2CC=CCC2)CC1 (stereo unspecified)
    i	7	-10	-35	9	7	2	5
32. O=C(Nc1ccon1)c1cccc(S(=O)(=O)N2CCCCCC2)c1
    i	9	-4	-26	15	-5	4	0
33. O=C(Nc1ccc2c(c1)OCO2)N1CCN(c2ccccc2)CC1
    i	-11	-7	-28	-19	-3	0	-2
34. CCCn1c(SCc2cc(=O)[nH]c3ccccc23)nc2c1c(=O)n(C)c(=O)n2C
    i	-2	-16	-61	4	-12	-1	8
35. O=c1[nH]c(=O)n(Cc2ccco2)c2c1C(C(F)(F)F)(C(F)(F)F)N=C(C1CCCCC1)N2
    i	-5	-2	-40	-20	-8	6	5
36. COc1ccc(S(=O)(=O)N2CCCCC2)cc1NC(=O)c1ccc2c(c1)OCO2
    i	2	-12	u	-1	4	5	1
37. OC[C@@H]1CN(Cc2ccc(F)cc2)C[C@H](n2cnc3c(Nc4ccccc4)ncnc32)O1
    x	x	-11	-28	x	x	10	-4
38. CCN(CC)S(=O)(=O)c1ccc(N/N=C/c2ccc(O)cc2)nc1
    i	-2	x	16	x	4	1	-5
39. CC(C(=O)Nc1ccccc1Br)c1ccc([N+](=O)[O-])cc1 (stereo unspecified)
    i	4	3	14	-7	-9	3	1
40. O=c1[nH]c(/C=C/c2ccc(Br)cc2)nc2ccccc12
    i	-13	-13	-88	13	4	6	4
41. CC(C)(C)C(=O)Nc1ccc(-c2cn3ccsc3n2)cc1
    i	-1	-58	x	20	-6	9	4
42. COc1ccc(CCC(C)NCc2ccc(F)cc2)cc1 (stereo unspecified)
    i	1	-3	u	4	-5	-3	-3
43. CCN(CCN(C)C)C(=O)C1CCN(S(=O)(=O)c2c(C)noc2/C=C/c2ccccc2F)CC1
    i	x	-16	-7	-10	x	-4	-4
44. CCc1ccc2[nH]c(C(=O)Nc3ccc4c(c3)OCO4)cc2c1
    i	0	x	-20	55	-5	3	-8
45. CC(C)N(Cc1cnn(C)c1)Cc1nc(-c2ccc(Cl)cc2)no1
    i	-9	-14	17	-14	-3	-3	-1

Compounds 36 to 45, reprinted for reference:
Fields – Rce1 inhib	PABP FP inh	Yeast UUG start	Env fusion inh	CSC inhib	eIF4H inh	MT1-MMP act inh	MT1-MMP act inh RFP
36. COc1ccc(S(=O)(=O)N2CCCCC2)cc1NC(=O)c1ccc2c(c1)OCO2
    i	2	-12	u	-1	4	5	1
37. OC[C@@H]1CN(Cc2ccc(F)cc2)C[C@H](n2cnc3c(Nc4ccccc4)ncnc32)O1
    x	x	-11	-28	x	x	10	-4
38. CCN(CC)S(=O)(=O)c1ccc(N/N=C/c2ccc(O)cc2)nc1
    i	-2	x	16	x	4	1	-5
39. CC(C(=O)Nc1ccccc1Br)c1ccc([N+](=O)[O-])cc1 (stereo unspecified)
    i	4	3	14	-7	-9	3	1
40. O=c1[nH]c(/C=C/c2ccc(Br)cc2)nc2ccccc12
    i	-13	-13	-88	13	4	6	4
41. CC(C)(C)C(=O)Nc1ccc(-c2cn3ccsc3n2)cc1
    i	-1	-58	x	20	-6	9	4
42. COc1ccc(CCC(C)NCc2ccc(F)cc2)cc1 (stereo unspecified)
    i	1	-3	u	4	-5	-3	-3
43. CCN(CCN(C)C)C(=O)C1CCN(S(=O)(=O)c2c(C)noc2/C=C/c2ccccc2F)CC1
    i	x	-16	-7	-10	x	-4	-4
44. CCc1ccc2[nH]c(C(=O)Nc3ccc4c(c3)OCO4)cc2c1
    i	0	x	-20	55	-5	3	-8
45. CC(C)N(Cc1cnn(C)c1)Cc1nc(-c2ccc(Cl)cc2)no1
    i	-9	-14	17	-14	-3	-3	-1

The listing picks up, starting 2 compounds before the break.
Fields – Rce1 inhib	PABP FP inh	Yeast UUG start	Env fusion inh	CSC inhib	eIF4H inh	MT1-MMP act inh	MT1-MMP act inh RFP
44. CCc1ccc2[nH]c(C(=O)Nc3ccc4c(c3)OCO4)cc2c1
    i	0	x	-20	55	-5	3	-8
45. CC(C)N(Cc1cnn(C)c1)Cc1nc(-c2ccc(Cl)cc2)no1
    i	-9	-14	17	-14	-3	-3	-1
46. COc1ccc(Nc2ccc3c(c2)=NC2(CCCCC2)[N+]=3[O-])cc1
    i	-2	0	0	52	8	-19	-23
47. N/C(=N\OC(=O)c1cc(-c2ccccc2)nc2ccccc12)c1ccc(Cl)cc1
    i	7	-16	-35	9	2	-3	7
48. Cc1cccnc1NC(=O)c1ccccc1NC(=O)C(C)(C)C
    i	6	-25	-8	-6	8	-4	-2
49. COc1ccc(CNC(=O)CN(c2ccc(C(C)=O)cc2)S(=O)(=O)c2ccc(C)cc2)cc1OC
    x	x	-2	-8	-15	x	3	-1
50. COc1ccc(OCC(=O)NCCS(=O)(=O)N2CCN(c3ccc(F)cc3)CC2)cc1
    i	5	-11	5	-12	-2	x	x
51. O=C(c1cccc(N2C(=O)c3ccccc3C2=O)c1)N1CCCCCC1
    i	-10	x	20	13	4	1	2
52. CCCC1(C(=O)OCC)NC(c2cc(OC)c(OC)c(OC)c2)C2C(=O)N(CC)C(=O)C21 (stereo unspecified)
    i	-4	6	-43	3	-13	0	4
53. CCCCCCCNc1cccc(C)c1
    i	-7	x	-12	4	-9	3	-3
54. NC(=O)c1cc(S(=O)(=O)N2CCCCC2)cs1
    i	3	1	-22	0	-1	-1	1
55. CC1(C)N([O-])c2cc([N+](=O)[O-])ccc2[N+]1=O
    x	7	x	-5	4	18	x	x
56. Cn1nccc1C(=O)OCC(=O)Nc1ccc(S(N)(=O)=O)cc1
    i	4	-3	-1	-5	-10	6	5
57. Cc1cccc(N(C)c2cc(-c3ccc(F)cc3)nc3ccnn23)c1
    x	x	-17	63*	x	x	30	22
58. COc1ccccc1C/C(N)=N/OC(=O)COc1ccc(C)cc1
    i	x	x	4	6	x	-1	1
59. CC(C)(C)SCCNC(=O)c1ccccc1
    i	-1	-12	x	-4	12	5	4
60. CCOC(=O)c1csc(NC(=O)CC2CCCC2)n1
    i	-4	x	6	-2	-14	-14	-14
61. COc1ccc(S(=O)(=O)Nc2ccc(-n3cnnn3)cc2)cc1Br
    x	x	3	-17	x	x	8	2
62. O=C(NC1CC1)c1cccc(NC(=O)c2cnn(-c3ccccc3)n2)c1
    x	x	-2	x	4	x	2	-8
63. O=C(O)CC(NC(=O)C1CCCCC1)c1ccc(OC2CCCC2)cc1 (stereo unspecified)
    i	22	-9	-3	-3	-2	-1	2
64. CCN1CCN(C(=S)Nc2ccc3nc4n(c(=O)c3c2)CCCCC4)CC1
    i	-6	x	-1	-7	0	-2	-7
65. Cc1sc(NC(=O)c2ccco2)c(C(c2ccccc2)N2CCC(C)CC2)c1C (stereo unspecified)
    i	-3	x	15	12	-4	-5	-13
66. CCCCCCn1nc(C(=O)OCC(=O)c2c(N)n(C)c(=O)n(C)c2=O)c2ccccc2c1=O
    i	12	-2	-26	-15	-10	3	-3
67. Cc1nc(-n2nnc3ccccc32)c2c3c(sc2n1)CCCC3
    i	8	1	-26	2	-9	-6	-5
68. CC(C)Cc1nnc(NC(=O)CCC(=O)Nc2ccc3cn[nH]c3c2)s1
    i	-11	-14	1	-20	-14	2	-1
69. CC1CN(S(=O)(=O)c2cc(C(=O)NCCCN3CCCC3=O)ccc2Cl)CC(C)O1 (stereo unspecified)
    x	x	7	x	-9	x	2	-6
